Yeast UUG start: modulators of yeast start codon fidelity, primary screen, whole organism, S. cerevisiae, single point, plate reader; AID 602363, 2012; activity score, % at 18.7 µM; 350,000 tested, 0.13% active; S. cerevisiae UUG-firefly luciferase reporter, luminescence/redox ratio;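 active = replicate mean at a twofold rise or more, about +100% in these data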;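 also: firefly luciferase made from a UUG start codon reports start codon fidelity; reporter light over untreated wells divided by growth signal over untreated wells; some hits fall short of that in this replicate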
Rce1 inhib: yeast Rce1p protease inhibitors, primary screen, biochemical, fluorescence, cell-free homogeneous | CAAX prenyl protease 2 (Saccharomyces cerevisiae (strain ATCC 204508 / S288c)), Q03530 | yeast membranes, quenched prenylated peptide cleavage fluorescence | calls only | 290,000 tested, 0.27% active | AID 2563, 2010;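 active = fall in fluorescence gain of 50% or more versus controls, with final raw signal at or below 3038400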;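 also: plate controls were neutral control wells for no effect and wells lacking membranes for full effect; tested at 10 µM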
Target sequence (Q03530 whole entry, looked up): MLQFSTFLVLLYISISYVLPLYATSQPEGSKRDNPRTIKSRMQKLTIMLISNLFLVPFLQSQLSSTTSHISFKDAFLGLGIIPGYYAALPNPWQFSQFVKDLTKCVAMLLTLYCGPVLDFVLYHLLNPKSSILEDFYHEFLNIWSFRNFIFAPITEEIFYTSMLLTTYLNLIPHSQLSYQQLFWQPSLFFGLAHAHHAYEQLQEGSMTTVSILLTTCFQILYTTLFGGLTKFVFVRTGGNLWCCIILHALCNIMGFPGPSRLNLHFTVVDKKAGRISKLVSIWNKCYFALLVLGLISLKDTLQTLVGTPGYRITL
PABP FP inh: PABP poly(A) RNA binding inhibitors, primary screen, biochemical, fluorescence polarization, uHTS; Polyadenylate-binding protein 1 (Homo sapiens), P11940; inhibition, % at 35 µM; 290,000 tested, 1% active;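 active = 50% or more with normal probe brightness, or confirmed in later tests; about a fifth of its hits are not listed in these tables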;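 also: calls also rest on retests at 20 µM and on dose response follow-up; controls were probe without protein and protein plus probe with vehicle; some compounds called inactive have numbers as strong as hits; many hits fall short of the cut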
Target sequence (P11940 whole entry, looked up): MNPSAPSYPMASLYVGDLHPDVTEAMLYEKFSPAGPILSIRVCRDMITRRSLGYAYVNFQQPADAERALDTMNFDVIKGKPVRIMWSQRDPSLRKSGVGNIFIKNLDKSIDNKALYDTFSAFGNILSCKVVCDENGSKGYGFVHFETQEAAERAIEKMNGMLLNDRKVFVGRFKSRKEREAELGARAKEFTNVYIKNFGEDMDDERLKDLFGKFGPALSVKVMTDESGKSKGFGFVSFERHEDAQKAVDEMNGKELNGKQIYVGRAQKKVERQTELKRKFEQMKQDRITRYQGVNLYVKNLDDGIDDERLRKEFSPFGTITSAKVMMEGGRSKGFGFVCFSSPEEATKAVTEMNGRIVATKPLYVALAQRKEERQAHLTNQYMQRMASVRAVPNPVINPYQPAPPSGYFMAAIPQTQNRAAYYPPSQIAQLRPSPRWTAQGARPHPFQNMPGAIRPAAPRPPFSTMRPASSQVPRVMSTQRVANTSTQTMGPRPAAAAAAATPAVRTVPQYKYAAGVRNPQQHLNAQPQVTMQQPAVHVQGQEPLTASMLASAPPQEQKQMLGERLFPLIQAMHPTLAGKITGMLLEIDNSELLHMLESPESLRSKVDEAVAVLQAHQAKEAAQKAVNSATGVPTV
MT1-MMP act inh: blockers of MT1-MMP proenzyme processing, primary screen, HT1080 RFP-PRO-GFP cells, GFP/RFP fluorescence; GFP/RFP ratio fluorescence, overnight; percent of plate control window, DMSO zero; Matrix metalloproteinase-14 (Homo sapiens), P50281; GFP/RFP ratio change, % at 20 µM; 360,000 tested, 0.061% active;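 active = GFP/RFP ratio change of at least 30% with cell ATP level not reduced by more than half and red fluorescence within 50% of control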; also: strong numbers were not always called active
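Material: RFP-PRO-GFP reporter HT1080 cells. Dosing: single-point 20 µM compound, 1% DMSO. Controls: DMSO and RFP-L50D-GFP cell wells. Timing: cells overnight before dosing, compound overnight, 37 °C, 5% CO2. Measure: GFP/RFP fluorescence ratio.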
CSC inhib: cancer stem cell viability inhibitors, primary screen, luminescence; 300,000 tested, 1.1% active; inhibition, % at 7.5 µM; cancer stem cell-like cells viability;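 active = mean at 75% or more and at least half the replicates too; tested in HMLE shEcad cells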;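 also: 0% = median of negative and 100% = median of positive control wells; the first replicate is given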
HIV Env fusion: inhibitors of HIV-1 Env-driven cell-cell fusion, primary screen, HeLa-JRFL effector, CEM21 target cells, luciferase; inhibition, % at 12.3 µM; 360,000 tested, 1.1% active; AID 651610, 2012;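 active = mean replicate inhibition score of at least 50 and every replicate individually at or above 50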;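 also: 0% = plate neutral controls and 100% = maraviroc near 300 nM; one replicate is shown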
eIF4H inh: human eIF4H binding inhibitors, primary screen, translation initiation inhibitor project, biochemical, uHTS, fluorescence polarization; 290,000 tested, 0.94% active; Eukaryotic translation initiation factor 4H (Homo sapiens), Q15056; eIF4H fluorescence polarization binding assay; inhibition, % at 35 µM;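 active = 50% or more with normal probe brightness, or confirmed in later tests; about a fifth of its hits are not listed in these tables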;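 also: calls also rest on retests at 20 µM and on dose response follow-up; 0% = protein and probe with vehicle and 100% = probe without protein; strong numbers were not always called active; many hits fall short of the cut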
eIF4H inh retest: also measured in eIF4H inh; calls as there; inhibition, %; compound at 20 µM; confirmation average;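 mean of two retest wells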
PABP FP inh retest: further read-out of PABP FP inh, marked with its call; inhibition, %; compound at 20 µM; confirmation repeats;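 mean of two retest wells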
MT1-MMP act inh RFP: second read-out of MT1-MMP act inh, no call of its own (marks repeat the call); RFP signal change, %; measured here: RFP expression control read;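 0 = vehicle wells; hits needed this value within 50% of zero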
* marks the source's active call; other numbers are inactive results; i = inactive; . = no result given; & = joins results of further samples. This is a subset (hit frequency here may not be typical).

The opening 2 entries, ahead of the listing:
SMILES | Yeast UUG start | Rce1 inhib | PABP FP inh | MT1-MMP act inh | MT1-MMP act inh RFP | CSC inhib | HIV Env fusion | eIF4H inh | others
COc1ccc(OC)c(C(C)NS(=O)(=O)c2cccs2)c1 (stereo unspecified) | -2.1 | . | . | 6.7 | -0.6 | . | 5.6 | .
O=C(NCc1ccco1)c1nc(-c2ccc(F)cc2)no1 | . | i | -7.8 | 6.7 | 4.8 | -16.5 | -42.5 | 0.2

All compounds of this part, from the start:
SMILES | Yeast UUG start | Rce1 inhib | PABP FP inh | MT1-MMP act inh | MT1-MMP act inh RFP | CSC inhib | HIV Env fusion | eIF4H inh | others
COc1ccc(OC)c(C(C)NS(=O)(=O)c2cccs2)c1 (stereo unspecified) | -2.1 | . | . | 6.7 | -0.6 | . | 5.6 | .
O=C(NCc1ccco1)c1nc(-c2ccc(F)cc2)no1 | . | i | -7.8 | 6.7 | 4.8 | -16.5 | -42.5 | 0.2
COc1ccc(C2C(C(C)=O)=C(C)N=c3s/c(=C/c4ccc5c(c4)OCO5)c(=O)n32)cc1 (stereo unspecified) | . | i | 32.5 | . | . | . | . | 24.5
Cc1ccc(-n2c(SCC(=O)N/N=C/c3ccccc3C(=O)O)nnc2-c2ccccc2)cc1 | -7.6 | i | -3.7 | 4.0 | 5.2 | -10.0 | 10.8 | -6.1
O=Cc1[nH]c2ccccc2c1N(C(=O)CCl)c1ccccc1 | . | i | -2.1 | -11.6 | -4.3 | . | 13.0 | -6.5
COc1ccc(OC)c(NC(=O)COC(=O)c2ccc(-n3cnnn3)cc2)c1 | -18.3 | i | -2.5 | 2.7 | -0.3 | 9.6 | -64.1 | 3.4
CCCC(=O)N1CCN(Cc2nc3cc([N+](=O)[O-])ccc3n2C)CC1 | -21.2 | i | 0.3 | 1.0 | 4.5 | -15.4 | 1.7 | 1.0
CC(NC(=O)c1ccc(N(C)C)cc1)c1ccc(F)cc1 (stereo unspecified) | -21.0 | i | 6.9 | -10.7 | -2.4 | -13.6 | 6.6 | -7.5
COc1ccccc1N1CCN(Cc2ccc(Br)o2)CC1 | -10.9 | . | 10.4 | 4.4 | 0.3 | -15.0 | -8.1 | 5.7
NS(=O)(=O)c1ccc(NC(=O)c2cccc(Cl)c2)cc1 | . | i | 7.1 | 0.3 | -1.2 | 9.4 | -4.6 | -3.9
CC(=O)NN1C(=O)c2ccc(Oc3ccc([N+](=O)[O-])cc3)cc2C1=O | -9.4 | i | 49.1 | -3.2 | -1.0 | -13.7 | . | 55.9 | eIF4H inh retest=-9.6;PABP FP inh retest=-1.5
C=CC[C@H](CC(=O)N(CCO)Cc1ccccc1)C(=O)N[C@@H](COC(=O)[C@@H](CC=C)Cc1ccc(F)cc1)Cc1c[nH]c2ccccc12 | -10.2 | . | . | -13.2 | -20.3 | 25.9 | -180.3 | .
O=C(O)C1CC=CCC1C(=O)Nc1ccc(N2CCN(Cc3ccccc3)CC2)cc1 (stereo unspecified) | . | i | 3.6 | 1.6 | 5.5 | 1.6 | -15.1 | 3.2
O=C1c2ccccc2C(=O)N1CN(C(=O)COc1ccccc1)c1ccccc1 | -14.0 | i | 4.8 | -4.0 | -1.4 | -6.3 | . | 1.5
COc1ccc(OC)c(NC(=O)c2cn(C)c(=O)c3cc(OC)c(OC)cc23)c1 | 11.8 | i | -5.3 | 7.1 | -3.7 | -7.6 | -74.0 | 7.7
O=C(O)c1ccccc1-c1nc2cc(Cl)ccc2c(=O)n1O | . | i | 0.1 | -4.4 | 2.0 | 4.7 | 19.7 | 0.8
CS(=O)(=O)N(CC(=O)N1CCCCCC1)c1cccc([N+](=O)[O-])c1 | -12.5 | i | 3.1 | 1.3 | 3.6 | -15.8 | 6.1 | 2.5
COc1ccc(CN2CCC(Oc3cc(C(=O)NC4CC4)ccc3OC)CC2)c(O)c1 | -20.4 | i | -5.9 | 0.8 | 2.8 | . | -7.3 | -3.4
O=C(O)c1ccccc1NC(=O)c1ccccc1Nc1ccccc1 | -13.3 | i | 18.3 | 10.4 | 5.3 | 45.0 | -4.1 | -1.2
O=C(CSc1nnc(-c2ccccc2O)o1)Oc1ccc(Br)cc1 | -12.6 | i | -2.7 | 1.2 | 1.9 | -5.5 | -6.1 | 0.0
CC1CCN(S(=O)(=O)c2ccc(NC(=O)[C@@H]3CCCN3C(=O)c3cccs3)cc2)CC1 | -9.2 | . | . | 4.1 | -1.3 | . | -13.6 | .
O=C(C1CC1)N1CCC(c2nc(-c3ccc(S(=O)(=O)N4CCCC4)cc3)no2)CC1 | 5.6 | i | 40.7 | -0.5 | -3.3 | 1.1 | . | -13.0
CCC(CC)NC(=O)c1ccc2nc[nH]c2c1 | -49.0 | i | -6.3 | 2.4 | 5.0 | -11.8 | . | -10.0
Cc1noc(C)c1COc1ccc(C(=O)OCC(=O)NCCN2C(=O)CSC2=O)cc1 | . | i | 5.3 | 1.4 | 4.6 | -0.8 | 4.7 | -11.3
COc1cc(SC)ccc1C(=O)N1CC(C)OC(C)C1 (stereo unspecified) | . | i | 1.8 | -3.4 | 3.3 | -16.7 | 3.1 | -7.9

Next part:
SMILES | Yeast UUG start | Rce1 inhib | PABP FP inh | MT1-MMP act inh | MT1-MMP act inh RFP | CSC inhib | HIV Env fusion | eIF4H inh | others
O=[N+]([O-])c1ccc(O)c2ncccc12 | 0.6&-47.3 | i | 9.4 | 7.4 | -1.3 | 82.2* | -16.7 | 8.4
C=CCn1cc(C(=O)N2CCN(C)CC2)c(=O)c2cc(S(=O)(=O)N3CCCC3)ccc21 | 7.6 | i | -0.9 | -0.2 | 4.0 | 1.2 | 6.0 | -3.3
COC(=O)c1ccc(N2OC3(C)C=CC2CC3)cc1 (stereo unspecified) | -17.6 | i | 14.1 | -5.3 | 1.3 | -1.4 | -19.2 | -4.3
N#Cc1cc(N)ccc1-n1cccc1 | -9.9 | i | 1.0 | -2.2 | 1.7 | -3.7 | 9.1 | 3.6
Nc1ccc(NC(=O)c2cccc(C(=O)Nc3ccc(N)cc3Cl)c2)c(Cl)c1 | -18.3 | i | 2.3 | 4.7 | -6.0 | 39.5 | -5.8 | -7.2
COc1ccc(-c2nc(Cc3ccc(Cl)cc3)no2)cc1OC | -9.5 | i | 5.6 | 4.6 | -0.4 | 1.8 | . | 3.7
COc1ccc(CNCCc2ccc([N+](=O)[O-])cc2)c(OC)c1OC | -1.6 | i | 5.5 | -11.5 | -6.7 | -1.6 | -1.9 | -5.7
O=C1N(c2ccccc2C(F)(F)F)OC1(Cc1ccccc1)c1ccccc1 (stereo unspecified) | -8.3 | . | . | 0.0 | 0.8 | 56.5 | 3.2 | .
CCOC(=O)c1oc2ccccc2c1CSc1nnnn1-c1ccc(C)cc1 | -11.2 | i | 0.9 | 0.7 | -5.6 | -2.9 | . | 4.9
CN(C(=S)NC(=O)C1CC1)c1ccc(O)cc1 | -4.9 | . | . | -20.0 | 3.3 | -4.8 | . | .
CNC(=O)NCCN1CCCC1=O | -7.1 | i | -0.2 | 13.0 | 6.7 | -7.8 | . | -5.8
CN(c1ccc([N+](=O)[O-])cc1)c1cc2c(c3c1ccn3C)C1CCC2C1 (stereo unspecified) | -4.0 | . | . | 2.6 | -5.6 | . | 29.8 | .
COc1cc(C)nc(OCCNC(=O)COc2ccc(Cl)cc2C)n1 | -1.7 | i | 4.3 | 2.7 | 6.1 | . | . | -6.5
C=C(C)CSc1nnc(-c2cc(OC)c(OC)c(OC)c2)n1N | -2.8 | i | 4.4 | 1.9 | 2.8 | -0.7 | -32.4 | 7.9
Cc1cccc(Oc2nc3c(c(=O)n(C)c(=O)n3C)n2C)c1 | -16.6 | i | 0.2 | -2.1 | -2.0 | -4.8 | 12.6 | -4.1
O=c1c2ccccc2oc2c1oc1ccccc12 | 5.0 | . | . | 2.4 | 4.5 | . | -121.9 | .
CCCOC(c1ccccc1)(c1ccc(C(F)(F)F)cc1)C(Oc1nc(C)cc(C)n1)C(=O)O (stereo unspecified) | -5.7 | i | 6.1 | -8.6 | -4.2 | 4.6 | 24.2 | 5.3
O=C(COc1ccccc1)Nc1ccc(S(=O)(=O)N2CCCCCC2)cc1 | 5.3 | i | -4.9 | -2.5 | -8.5 | -10.9 | -25.4 | -2.6
CC(C)CN1C(=O)C(=O)N(CC(=O)NC2CCCc3ccccc32)C1=O (stereo unspecified) | . | i | 15.8 | 0.2 | -1.7 | -3.9 | -17.3 | 8.2
CCc1cn(C2CC(O)C(CO)O2)c(=O)[nH]c1=O (stereo unspecified) | -16.8 | . | . | 0.6 | 2.3 | 2.3 | -14.6 | .
COc1ccc(Cn2ccnc2SCC(=O)Nc2nnc(C)s2)cc1 | -12.7 | i | -2.6 | -1.9 | -1.2 | -18.7 | -2.9 | -5.8
C=CCOC(=O)CCP(=O)(CCC(=O)OCC=C)c1ccccc1 | -14.2 | i | -0.8 | 5.1 | -3.1 | -0.7 | . | -7.7
COc1ccccc1NS(=O)(=O)c1ccc(OC)c([N+](=O)[O-])c1 | . | i | 3.1 | 2.8 | 1.9 | 2.2 | 6.2 | 4.5
CCCCn1c2c(c3ccccc31)CCc1nonc1-2 | -8.2 | i | 17.8 | 4.9 | 4.1 | 20.7 | 3.1 | -6.7
Clc1ccc(CN2CCSCC2)c(Cl)c1 | -13.0 | i | 14.5 | -0.6 | 1.3 | 12.8 | -1.9 | 20.4

Carrying on.
SMILES | Yeast UUG start | Rce1 inhib | PABP FP inh | MT1-MMP act inh | MT1-MMP act inh RFP | CSC inhib | HIV Env fusion | eIF4H inh | others
Cc1cccc(C)c1NC(=O)CNCC(=O)N(C)C | -13.6 | i | 1.5 | -0.2 | -1.0 | -4.4 | -0.2 | -5.1
O=C(Nc1cccc(C(=O)N2CCOCC2)c1)NC1CCCCC1 | 1.8 | i | 3.5 | -2.9 | 1.0 | 5.3 | . | -1.0
CC(C)c1cc(C(=O)N/N=C/c2cccnc2)cs1 | . | i | -2.0 | . | . | 12.1 | -2.3 | -1.7
N#CC1CN(Cc2ccccc2)CN(Cc2ccccc2)C1 | . | i | 4.5 | 6.9 | -1.9 | -15.7 | 1.8 | -0.8
O=C(OCC(=O)C12CC3CC(CC(C3)C1)C2)c1ccc(O)cc1 | -11.2 | . | . | 6.3 | -4.0 | 39.1 | . | .
Cc1ccc(C(=O)/C=C/c2c(C)nn(-c3ccccc3)c2Cl)cc1 | -13.5 | i | 20.1 | -0.8 | -11.9 | . | -16.4 | -10.5
COc1ccc(-c2coc3c(C(=O)NCc4ccccc4)cccc23)c(C)c1 | 3.3 | . | . | 2.4 | -25.5 | . | 37.0 | .
Cc1csc(=O)n1CCC(=O)OCC(=O)c1c(N)n(CC(C)C)c(=O)n(C)c1=O | 3.7 | i | . | -1.6 | -14.6 | 0.2 | . | .
COc1ccc(COC(=O)c2ccc(Cl)c(S(=O)(=O)N3CCOCC3)c2)cc1F | 7.8 | i | 2.1 | 4.7 | -6.0 | -6.3 | -4.4 | 1.3
CCOc1ccc(NC(=O)CN(C)C(=O)CCCc2c[nH]c3ccccc23)cc1OCC | . | i | . | 11.9 | -2.3 | -14.8 | 4.7 | .
COc1ccc(CCNC(=O)/C=C/c2ccco2)cc1 | -19.8 | . | 0.3 | -2.9 | 1.8 | 2.0 | 8.9 | 16.5
O=C(COc1cccc(Cl)c1)Nc1ccccc1N1CCCCC1 | -16.2 | i | . | -0.1 | -4.5 | 12.5 | . | .

Compound activity from PubChem BioAssay.
